Mtb bLac sens: beta-lactam sensitization of Mtb H37Rv. M. tuberculosis H37Rv growth with meropenem, percent inhibition; hits of this screen are not shown here. AID 434955. inhibition, % at 25 µM. actives 0.27% (n = 330,000);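 active = about 74% or more and at least 40 points above the plate without the antibiotic, then above 30% in a dose series; inconclusive = first-round hits that could not be retested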;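 note: growth measured after seven days incubation then overnight dye step; 0% = bacteria only wells and 100% = bacteria with antibiotic; twin plates without the antibiotic show which effects depend on it; some results filed as inactive read as strong as hits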
RecA intein inh: inhibitors of M. tuberculosis RecA intein splicing; actives 0.75% (n = 290,000); inhibition, %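 (about 9 µM by stock and volumes)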; P9WHJ3; AID 2221; cell-free RecA intein splicing, fluorescence; in the data active = inhibition above about 30%; inconclusive = no clear call, values can overlap the other calls;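 note: 0% = vehicle wells and 100% = reference inhibitor control wells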
Target sequence (P9WHJ3 whole entry, looked up): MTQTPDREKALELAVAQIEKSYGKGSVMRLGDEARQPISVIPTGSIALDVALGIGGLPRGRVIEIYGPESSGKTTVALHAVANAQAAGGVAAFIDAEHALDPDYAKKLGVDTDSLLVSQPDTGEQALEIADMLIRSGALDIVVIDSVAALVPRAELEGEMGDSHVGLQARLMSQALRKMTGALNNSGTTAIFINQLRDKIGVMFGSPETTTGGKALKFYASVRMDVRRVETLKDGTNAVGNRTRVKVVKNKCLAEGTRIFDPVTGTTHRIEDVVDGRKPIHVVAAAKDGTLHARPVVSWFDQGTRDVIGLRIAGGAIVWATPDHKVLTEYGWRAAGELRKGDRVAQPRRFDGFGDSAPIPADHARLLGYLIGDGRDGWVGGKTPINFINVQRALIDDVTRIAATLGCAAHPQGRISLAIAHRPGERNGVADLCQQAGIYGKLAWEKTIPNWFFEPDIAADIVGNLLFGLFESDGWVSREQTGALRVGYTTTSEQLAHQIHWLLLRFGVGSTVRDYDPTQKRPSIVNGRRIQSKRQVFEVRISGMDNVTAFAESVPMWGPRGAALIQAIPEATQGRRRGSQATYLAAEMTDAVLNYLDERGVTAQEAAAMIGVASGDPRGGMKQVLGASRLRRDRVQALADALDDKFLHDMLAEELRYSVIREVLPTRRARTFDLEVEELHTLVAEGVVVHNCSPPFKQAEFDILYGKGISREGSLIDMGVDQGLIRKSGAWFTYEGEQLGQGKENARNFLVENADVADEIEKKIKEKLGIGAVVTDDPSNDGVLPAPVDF
Mtb H37Rv: M. tuberculosis H37Rv growth inhibitors, H37Rv strain (AID 1626); M. tuberculosis H37Rv growth inhibition; higher % means a stronger effect; one-dose inhibition, % at 10 µM; IC50 in µM for titrated hits; actives 0.95% (n = 220,000);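 active = confirmed in a dose series; inconclusive = inhibition above 80% but not taken into the dose series; inactive = below 80% or under 30% at every dose of the series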;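 note: bacteria incubated seven days before Alamar blue readout; 0% = bacteria only wells and 100% = bacteria with antibiotic wells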
YopH inh: inhibitors of Yersinia enterocolitica YopH tyrosine phosphatase. fluorescence Ex485/Em525. inhibition, %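 (about 10 µM by stock and volumes)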. actives 0.16% (n = 140,000). AID 898;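 active = inhibition of 50% or more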;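 note: controls were vehicle for no effect and minimum signal wells for full effect; inactives centre near -20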
Arbovirus anti: antivirals against arbovirus infection | arbovirus infection cell-based antiviral screen | inhibition, % at 10 µM | actives 0.37% (n = 200,000);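 active = inhibition from about 30%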;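 note: bluetongue infection of BSR cells; cell survival read as ATP light after 72 h; 0% = infected wells without compound and 100% = uninfected wells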
Arbovirus anti repeat: further read-out of Arbovirus anti, marked with its call; inhibition, %; measured here: 10K subset replicate screen; many hits read low in the repeat;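 first of two repeat runs on a subset; 0% = infected and 100% = uninfected wells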
Numbers without * were called inactive; ? = inconclusive; . = not tested or not shown; & = joins results of further samples.

SMILES	Mtb bLac sens	RecA intein inh	Mtb H37Rv	YopH inh	Arbovirus anti	others
CCCCN(CCCC)S(=O)(=O)c1ccc(N2CCCC2=O)c([N+](=O)[O-])c1	-3	7.7	1%	-11	.
CCC(C)(C)NC(=O)C(c1ccc(OC)cc1)N(Cc1ccco1)C(=O)CCC(=O)Nc1cc(C)on1 (stereo not drawn)	-4	0.8	2%	-5	7
O=C(c1ccc(Cl)c(Cl)c1)N1CCC(=O)N(C(COCc2ccccc2)Cc2ccccc2)CC1 (stereo not drawn)	-8	18	-5%	-18	-32
CC(CC(=O)C1C(C)C=CCC1(C)C)NNC(N)=O (stereo not drawn)	-13	2.8	-5%	.	7
COc1ccccc1N1C(=O)CC(Sc2ncccc2C(=O)O)C1=O (stereo not drawn)	5	-2.6	-1%	-14	-5
CC(C)OC(=O)CSc1nc(N)c(C#N)c(-c2cccs2)c1C#N	-5	-0.3	41%	-20	2
CCc1nc2ccccc2c(C(=O)OC2CCCCC2=O)c1C (stereo not drawn)	-1	3.0	6%	.	12
CC1=C(c2ccccc2)C(=S)NC(C)(C)C1	-6	-0.8	-3%	.	.
CCCC(=O)Nc1nc(-c2ccc3c(c2)OCCO3)cs1	-6	.	0%	-22	-7	Arbovirus anti repeat=16
CCn1ncc(C2=NOC(C(=O)Nc3c(C)n(C)n(-c4ccccc4)c3=O)C2)c1C (stereo not drawn)	-2	1.3	-18%	-21	1	Arbovirus anti repeat=0
CCOc1ccc(CCNC(=O)c2nnn(CC(=O)Nc3ccc(OC)c(OC)c3)c2N)cc1OCC	-3	-1.4	.	.	.
CCC(=NCCCN1CCOCC1)c1c(O)n(-c2ccccc2C)c(=O)[nH]c1=O	5	-8.3	-3%	.	.
CC(C)(C)N=C1NC(=NC(C)(C)C)c2ccccc21	-2	0.1	-4%	1	3
COc1cnc(-c2ccccn2)nc1Oc1ccc(F)cc1F	64	3.3	19µM*	.	2
O=[N+]([O-])c1cc2oc3c(c2c(C=NCc2ccccc2)c1O)CCCC3	-10	2.1	5%	-8	7
COc1ccc2cc(OCC(=O)NNC(=O)Nc3ccc(C(C)=O)cc3)ccc2c1	-3	-4.3	.	.	.
CC1CCN(C(=O)CSc2nc(N)c(NC(=O)c3ccccc3)c(=O)[nH]2)CC1	?	-2.1	.	.	.
CCOC(=O)N1CCN(C(=O)C2CCN(C(=O)c3cc4sccc4n3CC)CC2)CC1	-3	0.4	-1%	-19	0	Arbovirus anti repeat=-1
Cc1ccc(-c2nnn(CC(=O)N(CC3CCCO3)C(C(=O)NCC3CCCO3)c3ccc(F)cc3)n2)o1 (stereo not drawn)	-6	0.2	-3%	-31	6
CCOc1cccc(/C=C/c2ccc3cccc(O)c3n2)c1OC	100	0.1	.	.	.
CC1(C)C(=O)Nc2ccccc2N1C(=O)COC(=O)c1cc([N+](=O)[O-])ccc1N	-3	1.6	-3%	-4	9
Cc1ccc2c(CSc3nnc(N)s3)cc(=O)oc2c1	57	0.7	-9%	4	5
CCCc1ccc(C(C)NC(=S)NC2CCCCC2)cc1 (stereo not drawn)	11	7.8	.	.	.
CC(=O)Nc1ccc(C(F)(F)F)cc1Cl	-1	-1.4	-5%	.	.
CCN(CC)CCn1c2c(c(SCC(=O)Nc3nccs3)nc1=O)CCCC2	-5	0.3	.	.	.
COC(=O)C1CC(c2c(OC)cc(OC)cc2OC)=NO1 (stereo not drawn)	2	2.1	-1%	-21	7
Cc1cc[n+](CC[n+]2ccc(C)cc2)cc1	-2	0.5	.	.	.
Cc1cc(C)c(C(=O)OCC(=O)NCc2cccs2)c(C)c1	-3	1.1	-15%	.	1
Cn1c(CCNC(=O)c2ccc(Cl)c(Cl)c2)nnc1SCc1ccc(Cl)c(Cl)c1	-7	1.2	-5%	-27	4
CC1CCC(C(C)C)C(OC(=O)Cn2c(-c3ccccc3)[n+](C)c3ccccc32)C1 (stereo not drawn)	100&100	7.4&10	?	19&-34	-28&-25

Fetched by compound from above:
SMILES	Mtb bLac sens	RecA intein inh	Mtb H37Rv	YopH inh	Arbovirus anti	others
CCc1nc2ccccc2c(C(=O)OC2CCCCC2=O)c1C (stereo not drawn)	-1	3.0	6%	.	12
O=[N+]([O-])c1cc2oc3c(c2c(C=NCc2ccccc2)c1O)CCCC3	-10	2.1	5%	-8	7
COc1ccc2cc(OCC(=O)NNC(=O)Nc3ccc(C(C)=O)cc3)ccc2c1	-3	-4.3	.	.	.

The list goes on.
SMILES	Mtb bLac sens	RecA intein inh	Mtb H37Rv	YopH inh	Arbovirus anti	others
Cc1cccc(OCC(=O)NNS(=O)(=O)c2ccccc2F)c1	4	-5.4	.	.	.
CCC(=O)N1CCc2cc(S(=O)(=O)NC(C(=O)NCc3ccc(C)cc3)C(C)C)ccc21 (stereo not drawn)	2	-2.1	-9%	-19	-9
O=C(CC1(O)C(=O)Nc2ccccc21)c1ccc2c(c1)OCO2 (stereo not drawn)	1	1.9	12%	-5	-6	Arbovirus anti repeat=-5
O=C(NNC(=O)c1ccccc1O)c1ccc(Cl)c(S(=O)(=O)N2CCc3ccccc32)c1	-1	10	.	.	.
CCCc1nc2c(sc3nc4c(cc32)COC(C)(C)C4)c(=O)o1	45	6.3	3%	.	-1
O=C1c2ccccc2C(=O)N1Cc1cc(Cl)c(O)c([N+](=O)[O-])c1	-5	-1.1	.	.	.
CCN(c1ccccc1)S(=O)(=O)c1nnc(NC(=O)C(C)C)s1	5	-0.2	.	.	.
Cc1c(C(=O)N2CCCC2)c(S(=O)(=O)NCCc2ccccc2)c(C)n1C	-1	-2.6	.	.	.
COc1ccc(/C=N\N=C(N)N)cc1	-3	-5.0	-11%	.	-19
COc1c(C)cc(Br)cc1C(=O)Nc1ccccc1C	10	4.3	-3%	.	0
COc1ccc(N2Cc3cccc(C(=O)O)c3C2=O)cc1	0	0.9	-2%	-30	14	Arbovirus anti repeat=10
CN(C)CCNC(=O)c1ccc(Cl)s1	-10	5.7	0%	-5	8
OCC1CCCN(C(=S)NCCc2ccccc2)C1 (stereo not drawn)	-5	.	-7%	-13	6
Cc1ncoc1C(=O)N1CCc2c([nH]c3ccccc23)C1C(C)(C)C (stereo not drawn)	0	-4.9	4%	.	7
C[C@@H]([C@@H](O)c1ccccc1)N(C)C(=O)C(N)Cc1ccccc1 (stereo partly drawn)	-7	1.1	.	.	.
O=C(NCc1ccc(Cl)cc1)C1CCCN(S(=O)(=O)c2cnc[nH]2)C1 (stereo not drawn)	2	.	-14%	-2	-3	Arbovirus anti repeat=2
O=C(OCc1cccc([N+](=O)[O-])c1)c1cnccn1	34	0.3	37%	.	9
CC(=O)N1CCN(Cc2nc3cc(NC(=O)c4ccccc4Cl)ccc3n2C)CC1	-5	1.6	-4%	.	13
C=CCn1c(CNS(=O)(=O)c2ccc(Cl)cc2)n[nH]c1=S	-1	0.8	.	.	.
O=S(=O)(NCc1ccccc1)c1ccc(Cl)c(S(=O)(=O)NCc2ccccc2)c1	4	1.3	-10%	-18	0
O=C1Nc2ccccc2C1Cc1ccccn1 (stereo not drawn)	-8	-0.2	.	.	.
Cc1ccc(OCC(=O)N2CCc3ccccc3C2)c(C)c1	4	2.4	.	.	.
COc1cccc(Oc2ncnc(N)c2[N+](=O)[O-])c1	2	0.3	.	.	.
COC(=O)/C=c1/sc2nc3ccccc3n2c1=O	12	2.0	0%	-18	6
CCOc1ccc(CN2C(=O)c3ccccc3C2=O)cc1C(=O)N1CCC(C(N)=O)CC1	0	0.8	.	.	.
C/C(=N/O)c1cccc(N2Cc3ccccc3C2)c1	-4	6.4	.	.	.
CCC(Sc1nc2ccccc2s1)C(=O)Nc1nnc(C)s1 (stereo not drawn)	-1	-2.2	4%	-16	-3
Cc1cc(OCc2cc(C(=O)NC3CCC3)no2)cc(C)c1Cl	13	-0.2	.	.	.
O=C(Nc1nnc(-c2ccc(Cl)cc2)o1)c1nc2ccccc2s1	96	1.8	?	-2	-21
CCOC(=O)c1c(N2C(=O)C=CC2=O)sc(C)c1C	0	2.4	9%	-38	7
O=C(Nc1ccccc1)c1ccc(-c2ccc([N+](=O)[O-])cc2)o1	82	1.0	.	.	.
Cc1c(CC(=O)N[C@H](C(=O)O)C(C)C)c(=O)oc2cc3c(cc12)CCC(C)(C)O3	-2	1.5	.	.	.
Cc1cc(=O)oc2cc(OCC(=O)N/N=C/c3ccccc3[N+](=O)[O-])ccc12	4	-0.3	-9%	-5	4
Cc1cc(C)c(C)c(OCCn2ccnc2)c1	0	1.1	.	.	.
CC(=O)c1cccc(NC(=O)C(C)OC(=O)Cc2c[nH]c3ccccc23)c1 (stereo not drawn)	-2	-1.1	.	.	.
CN(Cc1ccccc1)C(=O)c1nn2cccnc2c1Cl	3	-2.0	-1%	.	-2
Cc1cccc(S(=O)(=O)Nc2ccc(-c3cn4ccccc4n3)cc2)c1	3	3.3	-2%	-30	2
N#Cc1c(-c2cccs2)nc(SCc2ccc(Cl)cc2)[nH]c1=O	.	21	-8%	.	7
O=C(NCCCN1CCOCC1)c1cccc(S(=O)(=O)NCc2ccccc2)c1	-1	0.9	.	.	.
Cn1c(CNC(=O)C2CCCCC2)cc2ccccc21	-1	6.0	.	.	.
COc1cccc(-c2nc(CS(=O)(=O)CC(=O)NCCN3CCOCC3)c(C)o2)c1	0	-0.7	.	.	.
O=C(CCC(=O)OCC(=O)c1ccc([N+](=O)[O-])cc1)Nc1ccccc1Cl	-11	-6.4	.	.	.
Oc1ccc(-c2nc(=S)[nH][nH]2)cc1	-2	-0.1	-11%	-3	1
N/N=C(\c1ccccc1)c1cc(Cl)ccc1N	5	4.4	.	.	.
Cc1ccc(OCc2nc(-c3ccccc3)no2)c(C)c1	27	3.9	1%	-55	7
COc1ccc(Nc2oc(COc3ccccc3F)nc2C#N)cc1	-4	41*	3%	-30	-4	Arbovirus anti repeat=-6
CCOC(=O)c1cc2occc2n1CC(=O)N1CCN(C(=O)c2ccco2)CC1	-5	-0.2	-7%	-37	8
Cn1c(SCC(=O)N2CCOCC2)nnc1-c1ccc(Cl)cc1Cl	-20	-4.0	-1%	-19	4
O=C(CCc1ccccc1)N1CCN(c2ccc(F)cc2)CC1	-8	-0.2	6%	.	9
CCC1OC23CCCCC2C(C#N)(C(=N)O3)C1(C#N)C#N (stereo not drawn)	-9	-179	-4%	-5	5
O=C(NC(=S)Nc1ccc(Cl)c(C(=O)O)c1)c1cccc(COc2ccccc2)c1	?	5.8	.	.	.
COc1ccc(/C=N/NC(=O)c2cccc(Br)c2)cc1Cn1cc(Cl)cn1	26	-1.7	6%	-30	-16
CCCCCCOc1ccc(C(CC(N)=O)C(=O)O)cc1 (stereo not drawn)	3	-0.3	-1%	.	10
O=C(O)Cc1ccc(N=Nc2c(O)c(C(=O)O)cc3ccccc23)cc1	0	-1.8	-9%	.	.
O=C(c1cccc([N+](=O)[O-])c1)N1CCN(c2ccccn2)CC1	4	2.3	0%	-18	4
CCC(CC)C(=O)c1c[nH]c(C(=O)NCc2cccnc2)c1	-8	-2.3	-2%	.	-2
Cc1ccc(C(O)(C(=O)NNC(=O)CN2CCN(C)CC2)c2ccc(C)cc2)cc1	-1	-2.3	1%	-26	-3
O=C(COc1ccc2ccccc2c1)NNC(=O)c1cnccn1	55	-2.6	?	-35	-19
CC1Cc2cc(/C(O)=C3/C(=O)C(=O)N(CCN4CCOCC4)C3c3ccc([N+](=O)[O-])cc3)ccc2O1 (stereo not drawn)	-1	-4.4	.	.	.
COc1ccccc1CC(NC(C)=O)C(=O)NC1CCN(C(=O)c2ccc([N+](=O)[O-])cc2)CC1 (stereo not drawn)	-4	0.7	-2%	-32	-5

The list continues.
SMILES	Mtb bLac sens	RecA intein inh	Mtb H37Rv	YopH inh	Arbovirus anti	others
O=C(COc1cccc(NC(=O)c2ccco2)c1)c1ccccc1	-8	0.3	-4%	-56	-28
COC(=O)c1c(C)oc(C)c1S(=O)(=O)N1CCCC1	2	-0.5	1%	.	.
CCOc1ccc(NC(=O)c2nn(-c3ccc(OC)cc3OC)c(=O)c3ccccc23)cc1	-2	-1.3	.	.	-1
O=C(CSCc1ccc(Cl)cc1)NCCSCc1ccco1	-5	6.2	16%	.	-3
CC(C)(C)NC(=O)NC(=O)CN1CC=C(c2ccccc2)CC1	21	0.1	0%	.	-4
N#C/C(=C\c1ccccc1)C(=O)NCc1ccc(F)cc1	-7	-0.9	.	.	.
COc1cc(NC(=O)Nc2cccc(C(C)=O)c2)cc(OC)c1OC	5	-2.7	1%	-61	3
O=C(CN(C1CC1)S(=O)(=O)c1ccc(S(=O)(=O)NC2CCCCC2)cc1)Nc1ccccc1	.	.	3%	-7	-26

Structural class: those above containing bromine.
SMILES	Mtb bLac sens	RecA intein inh	Mtb H37Rv	YopH inh	Arbovirus anti	others
COc1c(C)cc(Br)cc1C(=O)Nc1ccccc1C	10	4.3	-3%	.	0
COc1ccc(/C=N/NC(=O)c2cccc(Br)c2)cc1Cn1cc(Cl)cn1	26	-1.7	6%	-30	-16

An excerpt (hit frequency here may not be typical).
